Ba CapD inh: CapD enzyme inhibition | purified CapD enzyme, fluorescence intensity read-out; stronger effect = lower value; some hits fall short of the stated cut | z-score (concentration not given with the values) | hit rate 0.23% among 140,000 | AID 492967;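 active = z-score under -4 in either of two replicates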;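 also: stock transfer was 100 nL into about 40 µL; score is relative to mean and spread of the plate; one replicate is shown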
AID504770: growth inhibitors of E. coli YBA685 in a screen for V. cholerae RctB (chromosome II replication) inhibitors; E. coli YBA685 rctB-dependent plasmid, OD600 growth, 3 h; stronger effect = lower value; z-score (concentration not given with the values); hit rate 0.27% among 130,000;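 active = z-score under -2 on both plates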;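 also: wells of about 30 µL received 100 nL stock; score is relative to mean and SD of the test wells; the first replicate is given; strong numbers were not always called active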
* hit, by the source's call; . = no result given. The list is partial. The share of hits here may be higher or lower than overall.

Values run as follows: Ba CapD inh | AID504770
Cc1cc(C)c2cc(C(=O)Nc3ccccc3)[nH]c2c1
→ 1.4 | 0.95
COCCC1C(=O)c2c(n(Cc3ccccc3)c3nc4ccccc4nc23)N=C1C (stereo not given)
→ . | 2.15
Cc1[nH]nc2nc3c(c(-c4cc(C)n(C5CC5)c4C)c12)C(=O)CC(C)(C)C3
→ . | 0.4
Cc1onc(-c2ccccc2)c1-c1csc(-c2ccc(-c3csnn3)cc2)n1
→ 2.65 | -0.45
CCOC(=O)c1c(C)nsc1NC(=O)C1CCC1
→ -0.185 | 1
Cc1ccc(Sc2ncnc3ccsc23)cc1
→ 0 | -0.55
Cc1ccc(C2(CCNC(C)c3ccccc3)CCOC(C)(C)C2)cc1 (stereo not given)
→ 1.31 | .
COc1ccc(Cl)cc1C(=O)N/N=C/c1ccc(OC)c(C)c1OC
→ 0.24 | .
C=CCn1c(Cc2csc(N)n2)nnc1SCC(=O)Nc1ccc(S(N)(=O)=O)cc1
→ -1.14 | -0.15
O=C(Nc1ccc(OCC(=O)N2CCCC2)cc1)c1ccco1
→ . | -0.7
COc1ccc(-c2cc(=O)oc3c4c(ccc23)OCN(Cc2ccco2)C4)cc1
→ -0.39 | 1.35
CC(=O)N1CC(=O)N(Cc2ccccc2)/C(=C/c2ccc(N(C)C)cc2)C1=O
→ -0.245 | .
COc1ccccc1N1CCN(C(=O)CCc2ccccc2)CC1
→ 0.01 | -0.85
COc1ccc(Sc2cc(C(F)(F)F)nc(-c3ccccn3)n2)cc1
→ -0.53 | .
Nc1c(C(=O)N2CCCCC2)sc2nc(-c3ccccc3)cc(C(F)(F)F)c12
→ -0.555 | .
CN1CCC(N(C2CC2)S(=O)(=O)c2ccc([N+](=O)[O-])cc2)CC1
→ -0.545 | .
COC(=O)c1cccc(NS(C)(=O)=O)c1
→ 0 | -0.45
Cc1cc(C(=O)COC(=O)CN=C2NS(=O)(=O)c3ccccc32)c(C)n1C
→ . | -0.55
CCC(C(=O)N1CCN(c2ccccc2)CC1)n1sc2ccccc2c1=O (stereo not given)
→ -0.775 | -1.25
Cc1ccc(Cn2ccn(Cc3ccccc3)c(=O)c2=O)cc1
→ 23.2 | -0.65
COCC(=O)Nc1cccc2ccccc12
→ 2.79 | -0.6
Cc1ccccc1-n1c(SC(C)C(=O)NC(N)=O)nnc1-c1ccc(Cl)cc1 (stereo not given)
→ . | -0.4
Cc1nn(-c2ccccc2)c(C)c1C(=O)N(Cc1ccco1)Cc1cccs1
→ . | 0.35
COc1ccccc1CNC(=O)C1CCCN1S(=O)(=O)c1ccc2c(c1)C(C)(C)C(=O)N2C (stereo not given)
→ -0.575 | 0.1
COC(=O)CNC(=O)c1cc(-c2ccc(F)cc2)nc2ccccc12
→ -1.31 | 0
O=S(=O)(c1ccc(NC(=S)Nc2ccc3c(c2)OCO3)cc1)N1CCCCC1
→ 0 | -0.3
Cc1ccc(-n2c(N)c(C(=O)NCC3CCCO3)c3nc4ccccc4nc32)cc1 (stereo not given)
→ . | -0.1
CC(=O)NCc1ccc(C(=O)COC(=O)c2ccc(S(=O)(=O)N3CCCCCC3)cc2)o1
→ . | -0.5
Cc1cc(OC(=O)N(C)C)cc(=O)n1C
→ 0.965 | 0.75
O=C(OCc1nnc(-c2ccccc2)o1)c1ccccc1NS(=O)(=O)c1ccc2c(c1)OCCO2
→ . | -0.1
COc1ccc(C(=O)NCCc2ccccn2)cc1S(=O)(=O)NC1CCCC1
→ . | -0.1
O=C1c2cccnc2C(=O)N1CCc1ccc(S(=O)(=O)NCc2ccccn2)cc1
→ 0.13 | 0.1
COc1ccc(Br)cc1S(=O)(=O)N1CCN(Cc2ccc3c(c2)OCO3)CC1
→ 9.11 | -0.05
CCCC(=O)N1CCCC(c2nc(-c3ccc(C(C)C)cc3)no2)C1 (stereo not given)
→ . | 1.7
CC(NC(=O)COc1cccc(-n2cnnn2)c1)c1ccc2c(c1)OCO2 (stereo not given)
→ . | -1.15
Cc1ccc(C(=O)OCC(=O)Nc2ccc(N(C)C)cc2)c(C)c1
→ . | 0.95
CC1=NN(C(=O)CCc2ccccc2)C(O)(c2ccc(Br)cc2)C1 (stereo not given)
→ -0.675 | .
Cc1c(C(=O)NCc2ccc(Cl)cc2)sc2ncn(CC(=O)N3CCN(c4ccccn4)CC3)c(=O)c12
→ -0.22 | .
Cc1ccc(NC(=O)Nc2ccc3c(c2)oc(=O)n3C)cc1
→ 0.17 | -1.35
C=CCn1c(-c2cccnc2)nn(C(=O)c2cc(OC)c(OC)c(OC)c2)c1=S
→ -0.305 | -0.5
O=C(COc1ccccc1)N(c1nccs1)C1CCCCC1
→ 0.41 | 1.45
CCCCC[C@H](O)/C=C/[C@@H]1[C@@H](C/C=C\CCCC(=O)O)[C@@H](O)C[C@H]1O (tested in a mixture with another compound)
→ -0.295 | .
Cc1noc(C)c1CC(=O)N1CC(C(N)=O)Oc2ccccc21 (stereo not given)
→ . | -0.45
CC(C)Nc1nc(Oc2ccc(=O)n(-c3ccccc3)n2)nc(N(C)C)n1
→ -0.005 | -0.4
O=C(Nc1ccc(OCc2ccccc2)cc1)Oc1ccccc1N1CCCCC1
→ -0.175 | 0.1
NC(N)=NC(N)=Nc1cc(-c2cccs2)[nH]n1
→ 3.19 | -0.85
O=C(CSc1nc(-c2ccccc2)cc(=O)[nH]1)c1c[nH]c2ccccc12
→ 1.01 | -0.05
Clc1ccc(-c2noc(-c3csnn3)n2)cc1
→ -0.92 | -0.3
O=C(Nc1ccc(F)cc1)c1nnsc1S(=O)(=O)c1ccc(Cl)cc1
→ -1.1 | .
O=C(Nc1cccnc1)C(=O)c1c(O)[nH]c2ccccc12
→ 0.155 | 0.05
Cc1oc(-c2ccccc2)cc1-c1ccn[nH]1
→ 0.255 | -0.1
CC(C)CC(C(=O)O)N1C(=O)c2cc(Cl)c(Cl)cc2C1=O (stereo not given)
→ -0.095 | 1.75
CC(C)(C)C1CCc2c(sc3c2C(=O)NC(c2ccc4c(c2)OCO4)N3)C1 (stereo not given)
→ 0.13 | .
O=C(CCCN1CCOCC1)c1ccc(F)cc1
→ 0.505 | -0.4
CCCOc1ccc(C(F)(F)F)cc1NC(=O)c1cccnc1SCc1c(C)noc1C
→ . | -0.65
Oc1cccc2ccc(N3CCOCC3)nc12
→ 56.8 | -0.45
CCOC(=O)c1oc2ccc(Cl)cc2c1N
→ 106 | .
C=CCN(c1nc(C)c(Cl)c(OC)n1)S(=O)(=O)c1ccc(C)cc1
→ 0.215 | .
CC(C)C(O)(CC#CCN1CCCC1)c1ccccc1 (stereo not given)
→ -0.035 | -0.15
NS(=O)(=O)c1cc([N+](=O)[O-])c(N2CCN(S(=O)(=O)c3ccccc3Br)CC2)s1
→ -0.975 | .

Additional records.
Values run as follows: Ba CapD inh | AID504770
CCOc1ccc(N2CC(O)(c3ccc(C)cc3C)[N+]3=C2SCCC3)cc1 (stereo not given)
→ 0.275 | .
COc1cccc(C2CC(c3ccc(Br)cc3)=NN2S(=O)(=O)c2ccccc2)c1OC (stereo not given)
→ -0.37 | .
CCc1ccc(-c2csc3ncn(CC(N)=O)c(=O)c23)cc1
→ 0.14 | -0.65
CC(C(=O)NC1CCc2ccccc21)n1nc2ccccc2n1 (stereo not given)
→ -0.315 | -0.1
N#CC(c1ccc(O)cc1)N1CCOCC1 (stereo not given)
→ -0.74 | .
CCOc1cc(C2C(C#N)=C(N)OC3=C2C(=O)CC(C)(C)C3)cc([N+](=O)[O-])c1O (stereo not given)
→ -0.255 | .
N/C(=N\C(=O)N1CCOCC1)c1ccccc1OC(F)(F)F
→ -0.015 | -0.4
Clc1ccc(CCNc2ncnc3onc(-c4ccc(Cl)cc4)c23)cc1
→ 1.79 | 0.2
CCc1ccc(-c2nc(CN3CCC(C(=O)NCc4ccccc4Cl)CC3)c(C)o2)cc1
→ 0.19 | -1.5
COCCNc1nc(-c2ccc(C(C)(C)C)cc2)nc2ccccc12
→ 0.51 | .
O=S(=O)(c1ccccc1C(F)(F)F)N1CCN(c2ccccc2O)CC1
→ . | 2.4
CC(=O)NCCc1c(F)cccc1Cl
→ 0.23 | -0.55
COc1ccccc1N1CCN(C(=O)c2ccccc2C(F)(F)F)CC1
→ 0.23 | -0.35
CCOC(=O)C1=C(N)OC2=C(C(=O)CC(c3ccccc3)C2)C1c1ccccc1Cl (stereo not given)
→ -0.68 | .
Cc1ccc(Cn2c(=O)c3ccccc3n3c(SC4CCOC4=O)nnc23)cc1 (stereo not given)
→ . | 1.3
CCOc1cc(/C=C2\SC(=S)N(CCCC(=O)O)C2=O)ccc1O
→ . | -0.05
COc1cccc(CC(=O)Nn2c(C)nc3ccccc3c2=O)c1
→ 0.87 | 0.05
O=C(c1ccncc1)N(Cc1cc2ccccc2[nH]c1=O)c1ccccc1
→ . | -0.6
O=C1N=c2ccccc2=C1c1sc(=O)[nH]c1O
→ -1.08 | -0.45
CCOC(=O)C(=Cc1ccc(-c2ccsc2C(=O)OC)o1)C(=O)OCC
→ 1.97 | .

Arranged by number of heavy atoms (largest number first): some entries from above
Values run as follows: Ba CapD inh | AID504770
CCOc1ccc(N2CC(O)(c3ccc(C)cc3C)[N+]3=C2SCCC3)cc1 (stereo not given)
→ 0.275 | .
O=S(=O)(c1ccccc1C(F)(F)F)N1CCN(c2ccccc2O)CC1
→ . | 2.4
O=C1N=c2ccccc2=C1c1sc(=O)[nH]c1O
→ -1.08 | -0.45

Two entries from above, set out differently:
Cc1cc(C(=O)COC(=O)CN=C2NS(=O)(=O)c3ccccc32)c(C)n1C
  Ba CapD inh = .; AID504770 = -0.55

CCC(C(=O)N1CCN(c2ccccc2)CC1)n1sc2ccccc2c1=O (stereo not given)
  Ba CapD inh = -0.775; AID504770 = -1.25

The listing continues.
Values run as follows: Ba CapD inh | AID504770
COc1ccc(-c2[nH]nc3c2C(c2cc4c(cc2Br)OCO4)C(C#N)=C(N)O3)cc1 (stereo not given)
→ -0.235 | .
CCOC(=O)CSc1nc(-c2cccnc2)nn1C(=O)c1ccccc1
→ . | -1.7
CC(C)OC(=O)c1cc(=O)[nH]c2ccccc12
→ . | 0.1
COc1ccc(C(c2c(C)[nH]n(-c3ccccc3)c2=O)c2c(C)[nH]n(-c3ccccc3)c2=O)c(OC)c1
→ 0.07 | .
Cc1ccc(CNC(=O)c2cccnc2SCC(=O)Nc2ccc(C(C)C)cc2)cc1
→ -1.08 | .
Cc1cc(NC(=O)Cn2c(=O)n(CCCC(=O)NCc3ccccc3Cl)c(=O)c3ccccc32)n[nH]1
→ 0.805 | -0.25
N#CCN(CC#N)C(=O)c1ccc(Cl)cc1Cl
→ 0.355 | -0.25
CCCc1nc(SC)ncc1C(=O)NCc1ccc(F)cc1
→ -1.08 | 1.6
O=C1c2ccccc2C(=O)N1CCC(=O)N(C1CCCCC1)C1CCCCC1
→ -0.195 | -0.2
CC(C)Sc1sc(C#N)c2c1C(=O)CC(C)(C)C2
→ -0.46 | 1.05
Cc1oc2c(F)c(F)c(F)c(F)c2c1C(=O)Oc1ccc(Br)cc1
→ 0.375 | -1.1
CCCOc1ccccc1C1CC(=O)C2=C(C1)Nc1ccccc1N(C(C)=O)C2c1ccc(OC)cc1 (stereo not given)
→ 46.1 | .
COC(=O)c1ccccc1S(=O)(=O)NNC(=O)c1ccccc1-n1cccc1
→ 0.435 | .
CC(C)NC(=O)C1CC(c2ccc(F)cc2)=NO1 (stereo not given)
→ -0.19 | 2.15
S=c1[nH]nc(CSCc2cccc3ccccc23)n1C1CCCCC1
→ 0 | 0.35
CCN(CC)CCC(=O)N1c2ccccc2CCc2ccc(NC(=O)OC(C)C)cc21
→ . | -0.15
O=C(O)CSc1c2c(nc3cc(C(=O)N4CCCc5ccccc54)ccc13)CCCC2
→ -0.565 | 0.85
Clc1ccc2c(-n3nnc4ccccc43)ccnc2c1
→ . | -1.3
O=C(c1cccc2c1NC(c1ccc(Cl)cc1Cl)C1CC=CC21)N1CCOCC1 (stereo not given)
→ -0.065 | .
Cn1cccc1Cc1nnc(SCC(=O)N2CCCCC2)n1CCc1ccccc1
→ 11.3 | -0.5
CCC(=O)Nc1cc(OC)cc(OC)c1
→ -0.25 | .
CC1CCC2(CC1)Nc1ccccc1S2 (stereo not given)
→ . | -0.3
CCOC(=O)C1(C)C=C(Nc2ccc(S(N)(=O)=O)cc2)C(=O)N1c1ccc(S(N)(=O)=O)cc1 (stereo not given)
→ -0.3 | .
COc1ccc(N(CC(=O)NCc2ccc(Cl)cc2Cl)S(=O)(=O)c2ccccc2[N+](=O)[O-])c(OC)c1
→ 0.39 | .
CN1CCN(CC(O)(c2ccc(Cl)cc2)c2ccc(Cl)cc2)CC1
→ -0.595 | .
Cc1ccc2cc(C(F)(F)F)ccc2n1
→ . | 1.7
CCN(CC)CCNc1nc2c(c(=O)n(C)c(=O)n2C)n1Cc1ccc(Cl)c(Cl)c1
→ 0.445 | .
O=C(Nc1ccc(I)cn1)c1cccc(C(F)(F)F)c1
→ -0.18 | .
CCSc1nnc(CCNC2CCCCC2)n1C
→ . | -0.5
O=C(Cn1c(C(F)(F)F)nc2ccccc21)Oc1cccc(C(F)(F)F)c1
→ -0.165 | .
CNc1ccc(C(=O)O)cc1
→ 0.145 | -0.7
CCS(=O)(=O)c1ccc2oc(SCc3nc4ccccc4s3)nc2c1
→ . | -1.3
COCc1cc(Sc2cccc(Cl)c2Cl)nc(-c2ccccc2)n1
→ -0.365 | .
CCOC(=O)N/N=C/c1ccc(OC)c(Br)c1
→ 0.105 | .
Nc1nc(-c2ccncc2)ncc1S(=O)(=O)Cc1ccco1
→ -0.4 | 0.55
Cc1ccc(-c2csc(NC(=O)/C=C/c3ccco3)c2C(=O)O)cc1
→ -0.665 | -1.2
O=C(/C=C/c1ccco1)N(Cc1nnc(-c2ccccc2Cl)o1)C1CC1
→ . | -0.3
Cc1ccc(S(=O)(=O)C(CNC(=O)c2c(F)cccc2F)c2ccco2)cc1 (stereo not given)
→ . | -0.4
CSC(=NCc1cccs1)NC#N
→ 0.21 | -0.05
O=C(CCSc1nc(-c2ccco2)cc(C(F)(F)F)n1)NCc1ccco1
→ 0.51 | -0.4
